Marburg entry inh: qHTS for inhibitors of binding or entry into cells for Marburg Virus; 300,000 tested, 1.8% active; Marburg virus pseudotyped entry inhibition, cell reporter; control for the full effect not named in the record; about a third of the inactives were read at about 46 µM; Potency, µM (titrated, usually from 37.8 µM), for inactives: at the top dose activity change, negative = inhibition, most hits filed as inhibitors; active = well fitted inhibition curve with a large enough effect; inconclusive = small, poorly fitted or top-dose-only effect, or effect the other way; inactive = flat fitted curve, though single readings scatter; tested in HEK293 cells; about a fifth of its hits are not listed in these tables; note: % is set by controls: 0 for no effect and ±100 for the full control effect; luciferase read-out
RE007 growth inh: qHTS Assay for Inhibitors of the HIV-1 protein Vpr | S. pombe RE007 Vpr strain, BacTiter-Glo ATP luminescence, 24 h; control for the full effect not named in the record | Potency, µM (doses to about 92.2 µM), for inactives: top-dose activity change, negative = less growth | 360,000 tested, 0.21% active | AID 651644, 2012; active = well fitted falling curve with a large enough effect; inconclusive = small, poorly fitted or top-dose-only effect; inactive = no such curve, though single readings can be large or run the other way;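 note: % is set by controls: 0 for no effect and ±100 for the full control effect; nearly all actives have a fitted effect of over 50% in size; the assay follows cell death caused by Vpr and the record does not say whether a fall means rescue or toxicity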
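Fission yeast RE007 carrying one integrated HIV-1 vpr copy, seeded at OD 0.01 in PMG+AL medium with 23 nL pinned compound. Grown 24 h at 30 degrees; viability read by BacTiter-Glo luminescence after 5 min.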
NS1 inh: qHTS Assay for Inhibitors of Influenza NS1 Protein Function; S. cerevisiae slowed by influenza A NS1, growth recovery by OD600; Potency, µM (series often up to 46.1 µM), without a hit: top-dose activity, positive = more growth; 270,000 tested, 0.4% active; AID 2326, 2010; note: actives are rising curves; nearly all actives have a fitted effect of over 50% in size
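Growth recovery, yeast-based: influenza A NS1 expressed in S. cerevisiae causes slow growth, and suppressors are detected by OD600. The parent strain without NS1 is used as positive control.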
Lassa entry inh: qHTS for Inhibitors of binding or entry into cells for Lassa Virus | 300,000 tested, 1.2% active | Lassa virus pseudotype entry inhibition, cell reporter; control for the full effect not named in the record | Potency, µM (top dose mostly 37.9 µM), without a hit: at the highest dose activity change, negative = inhibition, actives largely listed as inhibitors | AID 540256, 2011; active means well fitted inhibition curve with a large enough effect; inconclusive means small, poorly fitted or top-dose-only effect, or effect the other way; inactive means flat fitted curve, though single readings scatter; tested in HEK293 cells; note: % is set by controls: 0 for no effect and ±100 for the full control effect; nearly all actives have a fitted effect of over 50% in size; luciferase read-out
Cruzain inh noDet: qHTS Assay for Promiscuous and Specific Inhibitors of Cruzain (without detergent) | Potency, µM, inactives show max response, negative = inhibition, usual class: inhibitors | purified cruzain, Z-FR-AMC fluorescence, no detergent | AID 1476, 2009 | 200,000 tested, 2.3% active; active = well fitted curve in the direction sought with a large enough effect; inconclusive = small, poorly fitted or top-dose-only effect, or another doubt; inactive = no such curve, though single readings can be large; an effect the other way counts as inactive or inconclusive;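 note: plate controls were enzyme without inhibitor for no effect and buffer without enzyme for full effect; nearly all actives have a fitted effect of over 40% in size; top concentration of the series not given in the record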
Target sequence (P25779 123-467 limits assumed): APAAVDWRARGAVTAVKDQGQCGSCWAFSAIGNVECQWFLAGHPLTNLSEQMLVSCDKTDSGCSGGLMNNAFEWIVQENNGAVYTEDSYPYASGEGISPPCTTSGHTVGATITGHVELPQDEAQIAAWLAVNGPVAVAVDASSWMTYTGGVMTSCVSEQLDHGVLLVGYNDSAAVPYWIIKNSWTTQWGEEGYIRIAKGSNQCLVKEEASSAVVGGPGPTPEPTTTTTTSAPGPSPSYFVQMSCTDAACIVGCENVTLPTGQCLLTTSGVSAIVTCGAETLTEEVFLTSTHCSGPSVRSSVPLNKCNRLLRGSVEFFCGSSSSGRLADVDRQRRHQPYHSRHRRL
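Detergent-free condition (0.00005% Triton X-100) in acetate buffer pH 5.5 with DTT. 1.5 nM enzyme and compound were pre-mixed 15 min, then 2 uM Z-FR-AMC substrate added; reaction progress from fluorescence change between first and third reads (60 s).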
StopGo reporter: High Throughput Screening for Foot and Mouth Disease Virus Antivirals; human cells with a luciferase reporter of 2A StopGo recoding; control for the full effect not named in the record; Potency, µM (highest dose often 57.9 µM), inactives show top-dose signal change, negative = less light; 410,000 tested, 1.2% active; active = well fitted falling curve with a large enough effect; inconclusive = small, poorly fitted or top-dose-only effect; inactive = no such curve, though single readings can be large or run the other way; tested in HEK293T cells; note: % is set by controls: 0 for no effect and ±100 for the full control effect; nearly all actives have a fitted effect of over 45% in size; luciferase light after 4 h
SARS PLpro yeast: qHTS of Yeast-based Assay for SARS-CoV PLP; S. cerevisiae expressing SARS-CoV PLpro, growth rescue; control for the full effect not named in the record; Potency, µM (doses to about 32.9 µM), without a hit: at the top dose activity, positive = growth rescue; 330,000 tested, 0.19% active; AID 485353, 2010; note: 0% is about no effect; nearly all actives have a fitted effect of over 55% in size; growth read by luminescence after 48 h
Cruzain inh Det: qHTS Assay for Promiscuous and Specific Inhibitors of Cruzain (with detergent) | 200,000 tested, 0.43% active | purified cruzain, Z-FR-AMC fluorescence, 0.01% Triton | Cruzipain (Trypanosoma cruzi), P25779 | Potency, µM, inactives show max response, negative = inhibition, most hits filed as inhibitors; active = well fitted curve in the direction sought with a large enough effect; inconclusive = small, poorly fitted or top-dose-only effect, or another doubt; inactive = no such curve, though single readings can be large; an effect the other way counts as inactive or inconclusive;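 note: plate controls were neutral wells for no effect and buffer without enzyme for full effect; nearly all actives have a fitted effect of over 40% in size; top concentration of the series not given in the record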
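Detergent-containing run (0.01% Triton X-100) in acetate buffer pH 5.5 with 5 mM DTT: enzyme at 1.5 nM final, 15 min compound preincubation at room temperature, then 2 uM Z-FR-AMC substrate. Activity taken as 60 s fluorescence increase at 360/450 nm.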
* marks the source's active call; other numbers are inactive results; u = inconclusive; x = no result given; & = joins results of further samples; [ ] = another dose, or the depositor's remark. Unless noted, calls come from the whole dose curve; as a rule, active means well fitted rising curve with a large enough effect; inconclusive means small, poorly fitted or top-dose-only effect; inactive means no such curve, though single readings can be large or run the other way. Potency is the fitted concentration of half-maximal effect. The order is random (roughly 4.7% active in at least one column).

SMILES	Marburg entry inh	RE007 growth inh	NS1 inh	Lassa entry inh	Cruzain inh noDet	StopGo reporter	SARS PLpro yeast	Cruzain inh Det
COC(=O)c1ccc(C(=O)N2CCCC(Nc3ccc(F)c(F)c3)C2)cc1 (configuration not stated)	-3.0%	-22.4%	-17.2%	-7.4%	x	-13.8%	-4.7%	x
CCC(C)c1ccc(NC(=S)NC2CCN(Cc3ccccc3)CC2)cc1 (configuration not stated)	11.2µM*	-6.1%	-16.7%	u	14.3%	u	1.0%	-0.7%
CCOc1ccc(NC(=O)CN(C)C(=O)c2ccccc2OCCOc2ccccc2)cc1OCC	-27.2%	10.4%	x	u	x	0.0%	-6.6%	x
O=C(NCCc1ccccc1)/C(=C\c1ccc([N+](=O)[O-])cc1)NC(=O)c1ccc(Br)cc1	-11.8%	-7.7%	15.7%	-5.5%	6.31µM*	44.7%[activator]	-5.4%	-1.9%
CN1CCN(CC(O)(c2ccc(Cl)cc2)c2ccc(Cl)cc2)CC1	u	-16.3%	x	-13.3%	x	-22.1%	2.3%	x
CC(=O)Nc1ncc(Cc2cc(Cl)ccc2Cl)s1	x	3.6%	-52.9%	x	x	21.0%	-6.5%	x
O=C(N/N=C\c1ccccn1)c1cccc(C(=O)N/N=C\c2ccccn2)n1	1.1%[46.1 µM]	-3.5%	x	15.5%[46.1 µM]	x	0.0%	x	x
COc1ccc(OCCCNCCc2ccccc2)cc1	-27.6%[46.1 µM]	-13.4%	2.5%	u	x	-14.3%	-0.5%	x
O=C(Cn1c(C(F)(F)F)nc2ccccc21)Oc1cccc(C(F)(F)F)c1	36.2%	21.3%	-12.0%	8.0%	1.6%	0.0%	-2.5%	-6.1%
CCCn1c(N)c(C(c2ccc(OC)cc2)N2CCN(c3ccccc3)CC2)c(=O)[nH]c1=O (configuration not stated)	1.7%[46.1 µM]	-6.5%	7.0%	4.5%	-5.0%	-12.0%	-7.2%	2.1%
CCOC(=O)C(Oc1ccc2c(-c3ccccc3)cc(=O)oc2c1C)c1ccccc1 (configuration not stated)	-8.1%	8.4%	-2.6%	u	u	-11.2%	2.4%	-2.0%
O=C(CC1C(=O)NCCN1C(=O)Nc1ccc(F)cc1)Nc1cc(Cl)ccc1Cl (configuration not stated)	0.0%	18.1%	1.9%	x	x	-8.4%	-0.4%	x
CCN1C(=O)C(=Cc2ccc(N3CCOCC3)o2)C(=O)N(CC)C1=S	x	-12.0%	5.6%	x	x	-17.6%	1.4%	x
CC(C)OC(=O)c1c(NC(=O)CCC(=O)O)sc2c1CCCCC2	0.9%	20.3%	-4.6%	-19.4%	u	-14.1%	-12.4%	-8.0%
COc1ccc(C(=O)Nc2ccc(O)c3c(=O)cc(-c4cccc(Cl)c4)oc23)cc1	x	18.7%	-0.6%	x	x	u	2.9%	x
Cc1ccc(NC(=O)CS(=O)CC(=O)NCC2OCCc3ccccc32)c(C)c1 (configuration not stated)	u	4.9%	-5.4%	-0.5%	13.1%	8.7%	0.2%	-4.0%
COC(=O)c1ccc(COC(=O)C2CCN(S(=O)(=O)c3ccc(C)c(C)c3)CC2)o1	u	3.8%	x	-0.4%	x	-10.4%	2.5%	x
NNc1ncnc2scc(-c3ccc(Cl)cc3)c12	-25.2%	5.3%	-12.0%	-2.9%	13.0%	u	-14.8%	-1.2%
CCOc1ccc(CNC(=O)c2ccc3c(c2)c(C)c(C)n3Cc2ccc(Cl)cc2)cc1	x	x	x	-0.8%[46.1 µM]	10µM*	-7.8%	x	2.4%
Cc1c(NC(=O)CN2C(=O)c3ccc([N+](=O)[O-])cc3C2=O)c(=O)n(-c2ccccc2)n1C	10.3%[46.1 µM]	4.0%	-0.2%	-0.5%	x	8.0%	-1.0%	x

No new results follow: an excerpt of the list.
SMILES	Marburg entry inh	RE007 growth inh	NS1 inh	Lassa entry inh	Cruzain inh noDet	StopGo reporter	SARS PLpro yeast	Cruzain inh Det
CCOC(=O)C(Oc1ccc2c(-c3ccccc3)cc(=O)oc2c1C)c1ccccc1 (configuration not stated)	-8.1%	8.4%	-2.6%	u	u	-11.2%	2.4%	-2.0%
O=C(CC1C(=O)NCCN1C(=O)Nc1ccc(F)cc1)Nc1cc(Cl)ccc1Cl (configuration not stated)	0.0%	18.1%	1.9%	x	x	-8.4%	-0.4%	x
CCN1C(=O)C(=Cc2ccc(N3CCOCC3)o2)C(=O)N(CC)C1=S	x	-12.0%	5.6%	x	x	-17.6%	1.4%	x

Next part
SMILES	Marburg entry inh	RE007 growth inh	NS1 inh	Lassa entry inh	Cruzain inh noDet	StopGo reporter	SARS PLpro yeast	Cruzain inh Det
COc1ccccc1CCC(=O)N1CCN(C(=O)c2ccccc2)CC1	3.5%[46.1 µM]	-8.0%	6.3%	4.9%	x	-14.3%	-0.7%	x
CCN(CC)C(=O)c1sc2nc(-c3cccs3)cc(-c3cccs3)c2c1N	-1.7%	-10.3%	1.8%	x	x	-11.8%	-2.1%	x
CCCOc1ccc(Cc2c(Cl)nc(SC)nc2N(C)C)cc1	u	6.9%	-9.4%	u	-8.9%	u	-31.2%	-5.2%
O=C(c1ccc2c(=O)n3c(nc2c1)CCCCC3)N1CCN(Cc2ccccc2)CC1	-16.2%	9.1%	-14.5%	-28.0%	6.2%	-17.6%	7.0%	0.1%
COc1ccccc1CN1CC(C(=O)N(C)CCc2nc3ccc(F)cc3[nH]2)CCC1=O (configuration not stated)	x	8.6%	-7.0%	x	x	9.8%	4.0%	x
OC(CON=C1c2ccccc2-c2ccccc21)CN1CCNCC1 (configuration not stated)	u	-4.3%	x	u	x	-20.7%	0.2%	x
O=C(O)CC1(CC(=O)Nc2ccc(Br)cc2)CCCCC1	5.6%	-1.5%	x	19.9%	x	-9.8%	-0.2%	x
COc1cc(NC(=O)CC2C(=O)N(c3cccc(C)c3)C(=O)N2Cc2cccs2)cc(OC)c1 (configuration not stated)	x	x	x	-28.1%[46.1 µM]	-4.0%	-12.6%	x	-5.8%
O=C(Nc1ccc(Cl)cc1Cl)NC1CCN(S(=O)(=O)c2ccc(F)cc2)CC1	4.2%[46.1 µM]	4.7%	-7.4%	-3.6%	x	u	-0.6%	x
O=C(Oc1ccccc1)c1ccc2nsnc2c1	13.5%	-21.1%	-5.6%	-2.2%	-5.7%	x	29.0%	-4.5%
Cc1ccc(C(=O)NCCN2CCOCC2)cc1S(=O)(=O)N1CCCCC1	25.0%	-4.7%	13.5%	-18.3%	x	-19.7%	-3.5%	x
COC(=O)CNC(=O)CNC(=O)c1nn(-c2ccc(OC)c(Cl)c2)c(=O)c2ccccc12	-22.9%	-0.4%	-7.9%	16.2%	23.1%	-16.5%	-8.9%	3.7%
Cc1ccc(/C=C/C(=O)c2cc(Br)ccc2OC(=O)c2ccco2)cc1	-21.7%	11.1%	-16.6%	-7.6%	-18.1%	32.2%[activator]	-8.1%	-4.8%
O=C(Nc1ccc(C(=O)Oc2ccccc2)c(O)c1)c1ccco1	5.1%	-1.6%	-52.7%	7.4%	-10.8%	10.4%	-15.8%	-5.7%
N#CC(c1ccc(O)cc1)N1CCOCC1 (configuration not stated)	3.3%	9.2%	-8.6%	8.2%	2.3%	1.7%	7.8%	-2.1%
CCN(CC)CCN1C(=O)C(=O)/C(=C(/O)c2cccc(OC)c2)C1c1ccccn1 (configuration not stated)	2.2%	-9.3%	-4.5%	6.0%	-23.5%	-0.9%	11.4%	-3.3%
CCOc1cc(C2C(C#N)=C(N)OC3=C2C(=O)CC(C)(C)C3)cc([N+](=O)[O-])c1O (configuration not stated)	0.0%[46.1 µM]	1.0%	x	26.0%[46.1 µM]	x	-11.2%	0.0%	x
COc1ccc(S(=O)(=O)N2CCOCC2)cc1NC(=O)CSc1n[nH]c(C(C)C)n1	u	4.3%	x	10.0%	x	-6.6%	0.7%	x
COc1cccc(CC(=O)Nn2c(C)nc3ccccc3c2=O)c1	17.3%&17.3%	-12.2%	0.8%	0.2%	-4.8%	x	2.6%	3.5%
Cc1ccc(C(=O)N2C(CC(=O)Nc3ccc(Cl)cc3)C(=O)NC3CCCCC32)cc1 (configuration not stated)	u	0.8%	0.7%	-19.3%	x	-7.5%	0.5%	x
COc1ccccc1CN=C1Nc2ccccc2CS1	u	-3.5%	x	13.4%	x	20.2%	0.7%	x
O=C1N=c2ccccc2=C1c1sc(=O)[nH]c1O	x	9.2%	-2.4%	x	x	14.9%	1.2%	x
CCOC(=O)C(=Cc1ccc(-c2ccsc2C(=O)OC)o1)C(=O)OCC	-10.8%	-14.6%	0.9%	7.2%	8.0%	31.6µM*	-1.6%	-1.6%
CSc1ccc(S(=O)(=O)NCc2ccccc2Cl)cc1	-6.6%	0.3%	-10.4%	-4.8%	-0.8%	76.9%[activator]	-5.7%	-2.2%
CCc1nnc(NC(=O)c2cc3c(s2)CCCCC3)s1	-0.2%	-18.6%	-0.6%	u	x	32.6%[activator]	x	x
O=C(CSc1cn(CCNC(=O)c2cccs2)c2ccccc12)NCc1ccccc1	-2.5%	-2.7%	0.6%	x	-2.5%	-19.5%	13.7%	-2.6%
CC(C)OC(=O)c1cc(=O)[nH]c2ccccc12	17.7%	16.4%	-5.6%	-8.3%	-4.1%	6.0%	1.9%	1.7%
CC(C)C(=O)Nc1ccc(N2CCOCC2)c(S(=O)(=O)Nc2ccccc2Cl)c1	-23.5%	-7.2%	x	-27.1%	x	29.5%	1.4%	x
